S aureus helic = blocks Staphylococcus aureus DNA helicase. purified S. aureus helicase, fluorescence unwinding assay; about half of the hits fall short of the stated cut. inhibition, %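 (tested at about 80 µM)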. hit rate 0.05% among 120,000. AID 485395;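 active means both duplicates at 50% or more, or one of them with a favoured structure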;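 further: 0% = mean of negative control wells and 100% = mean of positive control wells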
MgrA-DNA mod = modulators of Staphylococcus aureus MgrA DNA binding; hit rate 0.13% among 84,000; inhibition, %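 (about 10 µg/mL by stock and volumes)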; fluorescence polarization; AID 602314;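 active means above 50% in either of two replicates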;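 further: 0% = protein plus DNA without compound and 100% = DNA alone without protein; higher means less MgrA bound to DNA so lower polarization; one replicate is shown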
Active calls of the source: *; · = no result given. Some of the compounds tested; rates above refer to the full screens.

| No. | S aureus helic | MgrA-DNA mod | mol |
| --- | --- | --- | --- |
| 1 | 0 | · | CC(CCc1ccccc1)NC(=O)NC1CC(=O)N(c2ccccc2)C1 (stereo unspecified) |
| 2 | -17 | · | COc1cc(S(=O)(=O)NCc2ccc3c(c2)OCO3)c(C)cc1C |
| 3 | 15 | · | COCCCn1c(C)cc(C(=O)COC(=O)c2cccc(NS(C)(=O)=O)c2)c1C |
| 4 | 5 | · | O=C(CCCn1c(=O)oc2ccccc21)NCCc1ccc2c(c1)OCCO2 |
| 5 | 12 | -4.7 | CC(C)(C)C(=O)Nc1ccccc1NC(=O)C(C)(C)C |
| 6 | 9 | 0.7 | COC(=O)c1ccc(CSc2nc(-c3cccs3)cc(C(F)(F)F)n2)cc1 |
| 7 | 17 | -1.8 | O=C(OCC(=O)N1CCc2ccccc21)c1ccccc1 |
| 8 | · | 1.2 | CC1CC(N2CNC(=S)NC2)CC(C)(C)C1 (stereo unspecified) |
| 9 | -5 | · | COCC(C)Nc1nc(-c2ccc(OC)cc2OC)cs1 (stereo unspecified) |
| 10 | 3 | · | O=C(CSc1nnc(-c2ccccc2)n1Cc1ccccc1)c1cccs1 |
| 11 | · | 0.1 | N#CC(C(=O)c1ccccc1)=C1SCCS1 |
| 12 | 0 | 4.0 | CC(N/C=C1\C(=O)C2(C)CCC1C2(C)C)c1ccccc1 (stereo unspecified) |
| 13 | · | 1.4 | Cn1c(SCc2ccc(F)cc2)nnc1C1COc2ccccc2O1 (stereo unspecified) |
| 14 | -4 | 1.2 | Cc1nnc(SCCc2ccccc2)[nH]c1=O |
| 15 | · | -0.8 | CC(C)(C)c1ccc(C(=O)N2CCC(NC(=O)C3CCCCC3)CC2)cc1 |
| 16 | -10 | · | CN(C(=O)CSc1nc(N)nc(N)n1)C1CCCc2ccccc21 (stereo unspecified) |
| 17 | 16 | · | N#C/C=C\Oc1ccc(Cl)cc1N |
| 18 | -5 | · | O=C(Cn1cncn1)N/N=C/c1cc(Br)ccc1O |
| 19 | 8 | · | O=C(CSc1ccccc1C(=O)N1CCN(c2ncccn2)CC1)NC12CC3CC(CC(C3)C1)C2 |
| 20 | 20 | 3.8 | Cc1ccc2c(c1)N(CCCC(=O)N1CCCCC1)C(=O)CO2 |
| 21 | -32 | · | Cc1ccc(-n2nc3ccc(N)cc3n2)cc1 |
| 22 | -5 | · | Cc1ccc(C)c(OC(=O)c2ccc(N3CCCC3=O)cc2)c1C |
| 23 | -24 | · | COC(=O)c1c(-c2ccccc2)csc1NC(=O)CCN1CCC(C)CC1 |
| 24 | · | -0.2 | Cc1ccc(S(=O)(=O)NCCSc2cc(C(F)(F)F)nc3ccccc23)cc1 |
| 25 | 20 | 0.1 | O=C(COCc1cc(-c2ccc(F)cc2)on1)NCc1cccs1 |
| 26 | 4 | -0.2 | CCC(CC)NS(=O)(=O)c1cccs1 |
| 27 | 5 | · | Cc1ccc(C)c(S(=O)(=O)N/N=C/c2ccc(N(C)C)cc2)c1 |
| 28 | -6 | · | COc1cccc(C(=O)CC#N)c1 |
| 29 | 26 | 1.1 | Clc1ccc2c(N3CCCC3)ccnc2c1 |
| 30 | -1 | · | CS(=O)(=O)N1Cc2ccccc2CC1C(=O)Nc1cc(Cl)ccc1N1CCOCC1 (stereo unspecified) |
| 31 | 10 | 2.8 | O=c1c2c3c(sc2n2cnnc2n1Cc1ccccc1)CCCC3 |
| 32 | 16 | · | CCc1ccc(NC(=O)CC(C)S(=O)(=O)c2ccc3c(c2)CCN3C(C)=O)cc1 (stereo unspecified) |
| 33 | · | 0.6 | O=S(=O)(c1ccc(Br)s1)N1CCN(Cc2ccccc2)CC1 |
| 34 | 20 | -2.2 | COC(=O)C1=C(C)NC2=C(C(=O)CC(c3ccc(OC)cc3)C2)C1c1cccc2ccccc12 (stereo unspecified) |
| 35 | 3 | 1.7 | COc1ccc(Cl)cc1S(=O)(=O)n1ccnc1 |
| 36 | 10 | -2.5 | COc1ccc(N2C(=O)CC(SC(N)=Nc3ccccc3)C2=O)cc1 (stereo unspecified) |
| 37 | 5 | 18 | Cc1ccc(-n2ncc3c(=O)n(CC(=O)N(C)C)cnc32)cc1 |
| 38 | 12 | · | N#Cc1cccc(OCC(=O)NCC(F)(F)F)c1 |
| 39 | -6 | · | O=C(c1cccc(Cl)c1)N1CCN(S(=O)(=O)c2ccc(Cl)s2)CC1 |
| 40 | 10 | 5.0 | CCCS(=O)(=O)N1CCCC(C(=O)N2CCN(c3ccccc3)CC2)C1 (stereo unspecified) |
| 41 | -12 | · | COc1ccc(CCNC(=O)C2CCCNC2=O)cc1OC (stereo unspecified) |
| 42 | · | -1.6 | CSc1nnc(SC)n1CCNS(=O)(=O)c1cccc(Cl)c1 |
| 43 | · | -3.1 | CCOC(=O)c1cnn(-c2ccccc2)c1NC(=O)Nc1cccc(Cl)c1 |
| 44 | · | 0.9 | COc1ccc(-c2cn[nH]c2N)cc1OC |
| 45 | · | -2.0 | Cc1noc(C(F)(F)F)c1-c1nc(-c2cccc(C(F)(F)F)c2)no1 |
| 46 | 4 | -0.8 | Cc1ccc2c(c1)N(CC(=O)NC(C)(C)C)C(=O)C(C)O2 (stereo unspecified) |
| 47 | · | 0.9 | O=[N+]([O-])c1cc(C(F)(F)F)ccc1Oc1ccc(F)cc1 |
| 48 | · | -2.2 | O=C(Nc1ccccc1)c1csc(C2COc3ccccc3O2)n1 (stereo unspecified) |
| 49 | 13 | 3.0 | CCC(C(=O)Nc1cc(C)ccc1C)n1nnc(C(=O)O)c1C(=O)O (stereo unspecified) |
| 50 | -13 | · | Cc1ccc(SCCC(=O)O)cc1C |

Looked up above:
Reading of COc1ccc(Cl)cc1S(=O)(=O)n1ccnc1 under S aureus helic: 3
Reading of COC(=O)C1=C(C)NC2=C(C(=O)CC(c3ccc(OC)cc3)C2)C1c1cccc2ccccc12 (stereo unspecified) under MgrA-DNA mod: -2.2
Reading of Cc1ccc(SCCC(=O)O)cc1C under S aureus helic: -13

Next results:
| No. | S aureus helic | MgrA-DNA mod | mol |
| --- | --- | --- | --- |
| 51 | 5 | · | CCc1ccccc1NC(=O)c1cc(C)no1 |
| 52 | · | -0.1 | Cn1c2c(c(=O)n(C)c1=O)CN(CCc1ccccc1)CN2 |
| 53 | · | -1.5 | O=C(NCc1ccccn1)c1cccnc1SCCS(=O)(=O)c1cccc(C(F)(F)F)c1 |
| 54 | -3 | -2.4 | Cc1csc2nc(-c3ccccc3)cn12 |
| 55 | -16 | · | Cn1nccc1NC(=S)Nc1ccc(Cl)cc1 |
| 56 | -4 | · | CCOc1ncccc1C(=O)OCc1cc(C(=O)OC)c(C)o1 |
| 57 | 2 | 0.2 | Cc1cc(NS(=O)(=O)c2ccc(N=Cc3ccccc3O)cc2)no1 |
| 58 | 9 | 3.6 | COC(=O)COc1ccc2c(c1)C(=NO)c1cc(OCC(=O)OC)ccc1-2 |
| 59 | 13 | -0.9 | COc1ccc(CN2C(=O)CC(C(N)=O)SC2=Nc2ccccc2)cc1 (stereo unspecified) |
| 60 | -5 | · | COc1cc(NC(=O)CC2NC3CCCCC3NC2=O)cc(OC)c1 (stereo unspecified) |
| 61 | -16 | 0.4 | COc1ccc(-n2nnc3c(SCC(=O)Nc4cccc(C(F)(F)F)c4)ncnc32)cc1 |
| 62 | 13 | -1.2 | O=C(CCC1COc2ccccc2O1)Nc1ccccn1 (stereo unspecified) |
| 63 | -27 | · | Cc1cccc(C)c1NC(=O)C1(N2CCN(C(=O)c3ccco3)CC2)CCCCC1 |
| 64 | · | 3.2 | COc1ccc(/C=C2/SC(=S)N(CC(=O)O)C2=O)cc1OCc1ccc(Cl)cc1Cl |
| 65 | -11 | · | CCNCC(=O)Nc1ccc(Br)cc1 |

Some of these compounds in order of molecular weight, lowest first.
| No. | S aureus helic | MgrA-DNA mod | mol |
| --- | --- | --- | --- |
| 50 | -13 | · | Cc1ccc(SCCC(=O)O)cc1C |
| 54 | -3 | -2.4 | Cc1csc2nc(-c3ccccc3)cn12 |
| 44 | · | 0.9 | COc1ccc(-c2cn[nH]c2N)cc1OC |
| 51 | 5 | · | CCc1ccccc1NC(=O)c1cc(C)no1 |
| 65 | -11 | · | CCNCC(=O)Nc1ccc(Br)cc1 |
| 55 | -16 | · | Cn1nccc1NC(=S)Nc1ccc(Cl)cc1 |
| 46 | 4 | -0.8 | Cc1ccc2c(c1)N(CC(=O)NC(C)(C)C)C(=O)C(C)O2 (stereo unspecified) |
| 47 | · | 0.9 | O=[N+]([O-])c1cc(C(F)(F)F)ccc1Oc1ccc(F)cc1 |
| 41 | -12 | · | COc1ccc(CCNC(=O)C2CCCNC2=O)cc1OC (stereo unspecified) |
| 56 | -4 | · | CCOc1ncccc1C(=O)OCc1cc(C(=O)OC)c(C)o1 |
| 48 | · | -2.2 | O=C(Nc1ccccc1)c1csc(C2COc3ccccc3O2)n1 (stereo unspecified) |
| 49 | 13 | 3.0 | CCC(C(=O)Nc1cc(C)ccc1C)n1nnc(C(=O)O)c1C(=O)O (stereo unspecified) |
| 60 | -5 | · | COc1cc(NC(=O)CC2NC3CCCCC3NC2=O)cc(OC)c1 (stereo unspecified) |
| 57 | 2 | 0.2 | Cc1cc(NS(=O)(=O)c2ccc(N=Cc3ccccc3O)cc2)no1 |
| 45 | · | -2.0 | Cc1noc(C(F)(F)F)c1-c1nc(-c2cccc(C(F)(F)F)c2)no1 |
| 59 | 13 | -0.9 | COc1ccc(CN2C(=O)CC(C(N)=O)SC2=Nc2ccccc2)cc1 (stereo unspecified) |
| 58 | 9 | 3.6 | COC(=O)COc1ccc2c(c1)C(=NO)c1cc(OCC(=O)OC)ccc1-2 |
| 42 | · | -1.6 | CSc1nnc(SC)n1CCNS(=O)(=O)c1cccc(Cl)c1 |
| 40 | 10 | 5.0 | CCCS(=O)(=O)N1CCCC(C(=O)N2CCN(c3ccccc3)CC2)C1 (stereo unspecified) |
| 43 | · | -3.1 | CCOC(=O)c1cnn(-c2ccccc2)c1NC(=O)Nc1cccc(Cl)c1 |
| 39 | -6 | · | O=C(c1cccc(Cl)c1)N1CCN(S(=O)(=O)c2ccc(Cl)s2)CC1 |
| 63 | -27 | · | Cc1cccc(C)c1NC(=O)C1(N2CCN(C(=O)c3ccco3)CC2)CCCCC1 |
| 53 | · | -1.5 | O=C(NCc1ccccn1)c1cccnc1SCCS(=O)(=O)c1cccc(C(F)(F)F)c1 |
| 64 | · | 3.2 | COc1ccc(/C=C2/SC(=S)N(CC(=O)O)C2=O)cc1OCc1ccc(Cl)cc1Cl |

Assay outcomes from PubChem BioAssay.
